15-hLO inh: 15-hLO (ALOX15) enzyme inhibition | purified 15hLO-1, xylenol orange hydroperoxide absorbance | Potency, µM (highest dose often 57.1 µM), for the others: top-dose activity change, negative = inhibition, usual class: inhibitors | 74,000 compounds, 1.4% hits | AID 887; note: potency is the fitted concentration of half-maximal effect; % is set by controls: 0 for no effect and ±100 for the full control effect; nearly all actives have a fitted effect of over 55% in size
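Inhibition is scored from a chromogenic endpoint. After 15 min enzyme-compound contact, arachidonic acid (50 uM final) reacts 6 min with 40 nM 15hLO-1 at room temperature, then Fe-XO reagent is added for 30 min and absorbance ratio recorded.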
Casp7 inh: caspase-7 (human) inhibition, allosteric or competitive; recombinant caspase-7, Ac-DEVD-AFC fluorescence rate; 75,000 compounds, 0.02% hits; Potency, µM (top dose mostly 57.5 µM), for the others: at the top dose activity change, negative = inhibition, hits mostly inhibitors; AID 889; active = well fitted inhibition curve with a large enough effect in the main read-out, with a control signal flat, not every such curve was filed as active; inconclusive = small, poorly fitted or top-dose-only effect, or a change in a side signal; note: potency is the fitted concentration of half-maximal effect; % of control where 0% means no effect
BRCT PPI green: BRCA1 BRCT-phosphoprotein interaction inhibition; P38398; BRCA1 BRCT-phosphopeptide binding, green fluorescence polarization; Potency, µM (top dose mostly 76.9 µM), for the others: at the top dose activity change, negative = inhibition, actives largely listed as inhibitors; 75,000 compounds, 0.05% hits;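 note: potency is the fitted concentration of half-maximal effect; plate controls were peptide without protein for full effect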
Target sequence (P38398 whole entry, looked up): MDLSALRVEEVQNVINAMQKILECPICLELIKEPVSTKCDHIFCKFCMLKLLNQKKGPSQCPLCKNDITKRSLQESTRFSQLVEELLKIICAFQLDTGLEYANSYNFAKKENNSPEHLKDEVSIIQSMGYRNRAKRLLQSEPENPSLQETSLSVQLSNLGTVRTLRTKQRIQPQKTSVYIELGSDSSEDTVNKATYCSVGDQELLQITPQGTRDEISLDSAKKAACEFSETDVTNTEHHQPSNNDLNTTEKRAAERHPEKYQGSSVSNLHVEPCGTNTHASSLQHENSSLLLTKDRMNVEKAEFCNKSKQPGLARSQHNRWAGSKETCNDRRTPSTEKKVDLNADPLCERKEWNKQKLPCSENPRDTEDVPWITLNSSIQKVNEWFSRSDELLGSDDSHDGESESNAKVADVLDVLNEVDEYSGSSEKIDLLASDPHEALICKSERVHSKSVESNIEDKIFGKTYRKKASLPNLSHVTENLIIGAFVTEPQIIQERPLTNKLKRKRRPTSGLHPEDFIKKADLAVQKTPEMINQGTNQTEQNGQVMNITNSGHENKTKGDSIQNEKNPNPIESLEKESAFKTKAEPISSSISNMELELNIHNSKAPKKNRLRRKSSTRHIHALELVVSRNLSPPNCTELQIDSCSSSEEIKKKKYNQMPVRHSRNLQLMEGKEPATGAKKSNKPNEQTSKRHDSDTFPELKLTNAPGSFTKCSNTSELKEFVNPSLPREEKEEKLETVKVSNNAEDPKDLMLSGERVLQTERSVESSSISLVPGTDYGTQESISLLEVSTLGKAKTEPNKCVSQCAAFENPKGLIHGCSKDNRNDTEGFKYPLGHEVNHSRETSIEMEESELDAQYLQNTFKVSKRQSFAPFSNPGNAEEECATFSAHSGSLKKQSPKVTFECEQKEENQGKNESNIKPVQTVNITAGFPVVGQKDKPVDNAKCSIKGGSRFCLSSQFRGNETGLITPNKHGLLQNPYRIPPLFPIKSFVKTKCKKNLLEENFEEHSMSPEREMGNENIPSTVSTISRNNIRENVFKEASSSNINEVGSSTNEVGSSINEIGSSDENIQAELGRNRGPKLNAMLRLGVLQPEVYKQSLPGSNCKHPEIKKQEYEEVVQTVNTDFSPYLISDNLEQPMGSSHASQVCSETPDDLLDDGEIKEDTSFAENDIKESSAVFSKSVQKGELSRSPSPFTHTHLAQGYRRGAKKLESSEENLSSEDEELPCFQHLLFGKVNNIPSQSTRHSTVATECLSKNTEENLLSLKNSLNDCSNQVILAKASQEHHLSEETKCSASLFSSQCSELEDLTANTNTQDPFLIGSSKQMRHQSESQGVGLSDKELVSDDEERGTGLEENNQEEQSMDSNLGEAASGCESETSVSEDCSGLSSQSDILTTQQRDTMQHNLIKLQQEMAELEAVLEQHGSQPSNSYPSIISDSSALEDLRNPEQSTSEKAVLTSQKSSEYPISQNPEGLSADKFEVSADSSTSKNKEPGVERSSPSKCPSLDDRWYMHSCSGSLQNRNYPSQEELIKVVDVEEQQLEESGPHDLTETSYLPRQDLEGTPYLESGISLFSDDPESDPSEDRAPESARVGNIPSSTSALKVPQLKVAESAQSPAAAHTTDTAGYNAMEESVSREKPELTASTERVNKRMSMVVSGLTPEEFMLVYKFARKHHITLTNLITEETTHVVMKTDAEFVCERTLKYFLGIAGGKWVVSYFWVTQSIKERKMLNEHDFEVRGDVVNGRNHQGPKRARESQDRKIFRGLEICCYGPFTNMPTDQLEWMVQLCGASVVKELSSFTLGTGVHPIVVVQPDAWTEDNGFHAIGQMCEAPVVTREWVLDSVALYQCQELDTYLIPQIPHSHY
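Fluorescence polarization: His-tagged BRCT (~35 kDa BRCA1 C-terminus, 250 nM) bound to 100 nM fluorescein-labeled phosphorylated 10-aa BACH1 peptide, pH 7.3 phosphate buffer with DTT and Tween 20. Compounds incubated 12 min at room temperature; inhibition read as lowered polarization.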
Pol III holo inh: DNA polymerase III holoenzyme inhibition; reconstituted DNA polymerase III holoenzyme replication, biochemical; Potency, µM (top dose mostly 57.1 µM), for inactives: top-dose activity change, negative = inhibition; 71,000 compounds, 0.25% hits; AID 603; note: potency is the fitted concentration of half-maximal effect; % is set by controls: 0 for no effect and ±100 for the full control effect
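Reconstituted *E. coli* holoenzyme (0.35 nM Pol III, 1 nM beta, 154 nM SSB, 2 nM primase) was preincubated with compound for 15 min at RT. Synthesis on 1.4 nM ssM13Gori ran 35 min, then was stopped with PicoGreen/EDTA and read as dsDNA fluorescence.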
HEK293 cAMP ctrl: parental HEK293 cAMP activation (counter-screen). parental HEK293 CNG cAMP sensor, membrane potential fluorescence. Potency, µM (top dose mostly 57.1 µM), without a hit: at the top dose activation, usual class: activators. 73,000 compounds, 2.5% hits; note: potency is the fitted concentration of half-maximal effect; % of control where 0% means no effect; nearly all actives have a fitted effect of over 55% in size
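Parental HEK 293 cells stably expressing a cAMP-gated CNG channel were loaded with membrane potential dye containing 100 uM RO 20-1724 for 60 min. Compound added for 30 min; depolarization read as fluorescence intensity at 590 nm.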
Caspase-1 inhib: caspase-1 (human) inhibition, allosteric or competitive; P29466; 75,000 compounds, 0.03% hits; Caspase-1 enzyme, Ac-WEHD-AFC fluorogenic rate; Potency, µM (doses to about 57.5 µM), for the others: at the top dose activity change, negative = inhibition, hits mostly inhibitors;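 note: potency is the fitted concentration of half-maximal effect; plate controls were vehicle for no effect and no substrate for full effect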
Tau fil binding: binds recombinant human tau filaments | P10636 | recombinant tau filaments, thioflavin S fluorescence, 15 h; filaments grown with octadecylsulfate alongside compound | Potency, µM (highest dose often 57.1 µM), for inactives: at the highest dose activity change, negative = inhibition | 71,000 compounds, 2% hits;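 note: potency is the fitted concentration of half-maximal effect; % is set by controls: 0 for no effect and ±100 for the full control effect; actives lower thioflavin S fluorescence by blocking filaments or displacing dye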
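Read-out: ThS fluorescence, 450 nm excitation/510 nm emission; lower signal marks blocked filament formation or displaced dye. Tau at 1 uM with 30 uM ODS, 10 uM ThS, 5 mM DTT, 100 mM NaCl, 10 mM HEPES pH 7.4; 15 h, 37 C.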
USP2a inhib: blocks human ubiquitin-specific protease USP2a; Potency, µM (highest dose often 38.3 µM), inactives show at the highest dose activity change, negative = inhibition, hits mostly inhibitors; O75604; USP2a enzymatic assay, qHTS inhibition; 60,000 compounds, 0.1% hits; AID 927;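 note: potency is the fitted concentration of half-maximal effect; nearly all actives have a fitted effect of over 60% in size; plate controls were DMSO for no effect and NEM full inhibition control for full effect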
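Coupled readout: USP2-cleaved Ub-PLA2 (20nM final) turns over NBD C6-HPC (20uM final), Ex 460nm/Em 535nm after 2.5 h, time-zero read flagging artifacts. Enzyme (20nM final, pH 8.0 Tris) given 30 min RT with compound first; NEM defines full inhibition.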
BRCT PPI red: inhibitors of human BRCA1 BRCT-phosphoprotein interaction (red fluorophore). P38398. BRCT-phosphopeptide binding, red fluorescence polarization. Potency, µM (highest dose often 76.9 µM), inactives show top-dose activity change, negative = inhibition, actives largely listed as inhibitors. 75,000 compounds, 0.03% hits. AID 892; note: % is set by controls: 0 for no effect and ±100 for the full control effect
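Rhodamine-labelled pBACH1 10-mer (100 nM) bound to BRCT domain (100 nM) at pH 7.3; compounds incubated 12 min room temperature, polarization read. Free peptide defines full inhibition; unlabelled decapeptide titrated as control.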
Rhodamine autofl: compound autofluorescence in rhodamine spectral region. 59,000 compounds, 0.05% hits. Rhodamine-region fluorescence, 547/598 nm, Tris buffer; stronger effect = higher value. max dye-equivalent concentration, M; in the data active = max dye-equivalent concentration above about 11 nM; inconclusive = between about 1.1 nM and that limit
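Steps: pin-transfer compounds into pH 8.0 Tris (100 mM), hold 15 min at room temperature, image with a 547/598 nm filter pair, and convert intensities to rhodamine-equivalent concentration using a six-point on-plate rhodamine series.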
* marks the source's active call; other numbers are inactive results; i = inactive; ? = inconclusive; . = not tested or not shown; [ ] = dose if it differs, or a comment. Unless noted, calls come from the whole dose curve; as a rule, active = well fitted curve in the direction sought with a large enough effect; inconclusive = small, poorly fitted or top-dose-only effect, or another doubt; inactive = no such curve, though single readings can be large; an effect the other way counts as inactive or inconclusive. Not all compounds are listed, so the mix of outcomes need not match the whole.

SMILES | 15-hLO inh | Casp7 inh | BRCT PPI green | Pol III holo inh | HEK293 cAMP ctrl | Caspase-1 inhib | Tau fil binding | USP2a inhib | BRCT PPI red | Rhodamine autofl
COc1cccc(Cn2c(=O)cnc3cncnc32)c1 | 14% | -8% | 4.1% | -10% | 23% | -3% | -17% | 189%[activator] | -1.0% | i
Cc1nc2cc(C(=O)O)ccc2n1-c1ccccc1 | 0% | 0% | 0.3% | 0% | 3% | 3% | 2% | . | -1.4% | .
COc1cccc(OC)c1C(=O)Nc1c(C)n(C)n(-c2ccccc2)c1=O | 1%[11.4 µM] | 1% | -1.4% | -2%[11.4 µM] | 9%[11.4 µM] | -2% | 2%[11.4 µM] | -1%[7.66 µM] | -1.2% | .
O=C(CCCSc1nc(-c2ccco2)cc(C(F)(F)F)n1)NCc1cccs1 | ? | -7% | 17% | 1% | 24% | -4% | -29% | -30% | -1.6% | i
Cc1ccc2nc(-c3ccccc3Cl)cc(C(=O)Nc3cc(C)on3)c2c1 | -12% | -1% | -2.4% | -14% | ? | -4% | -20% | 37%[activator] | -0.2% | i
Cc1ccc(-c2cnc(NC(=O)CCC(=O)N3CCCCC3)n2C)cc1 | 11% | -1% | -0.5% | -2% | -7% | 1% | -11% | 8% | -2.1% | i
O=C(NCCN1CCCCC1)c1cc2ccccc2[nH]1 | -2% | 2% | 0.4% | -3% | 9% | 1% | -11% | -5% | 0.5% | i
COc1ccc(OC)c(S(=O)(=O)Nc2ccccc2C(F)(F)F)c1 | 8% | -3% | 0.5% | 1% | 8% | -1% | 4% | -5% | -1.5% | i
CCn1c(N)c(C(=O)NCC2CCCO2)sc1=S (stereo unspecified) | 10µM* | 1% | -3.0% | -2% | ? | -2% | 7% | 5% | 0.2% | i
CC(=O)c1c(N)[nH]c(-c2ccccc2)nc1=S | ? | 0% | 0.4% | 3% | 5% | 1% | -5% | 15% | -0.3% | i
COC(=O)c1c(NS(C)(=O)=O)sc2c1CCCC2 | -3% | -2% | 2.7% | 5% | 5% | -1% | 184% | -9% | 0.0% | i
O=C(CSc1nnc(-c2ccc(Cl)cc2)n1Cc1ccco1)c1cccs1 | ? | -11% | 1.9% | 1% | 16µM* | -2% | -25% | 34%[activator] | 0.6% | i
Cn1c(-c2ccc3c(c2)OCO3)cnc1NC(=O)CCC(=O)NCCc1ccccc1 | 29% | 0% | 0.7% | -6% | -2% | 1% | -8% | -1% | -2.0% | i
Cc1nc(N2CCN(C(=O)c3ccco3)CC2)c2c3c(sc2n1)CCC3 | ? | -3% | -1.3% | -2% | 29% | 1% | 12% | 10% | -2.1% | i
N#Cc1cccc(-c2nc(NCCN3CCOCC3)c3ccccc3n2)c1 | -1% | -2% | -0.3% | -5% | -3% | -3% | 32% | 100%[activator] | -3.3% | i
COc1ccc(-c2csc(NCc3ccco3)n2)cc1 | -12% | -2% | 2.0% | -3% | -5% | -4% | -27% | 14% | 0.7% | i
CC1CCc2nc(NC(=O)CSc3nc4ccccc4o3)sc2C1 (stereo unspecified) | 4% | -2% | 1.0% | 2% | 29% | -2% | 320% | 15% | 0.8% | i
c1ccc(-c2cn3nc(-c4ccccc4)sc3n2)cc1 | 8% | 1% | 0.6% | 1% | -2% | 0% | 1% | -6% | 0.1% | .
COc1cc(C(=S)N2CCC(C(N)=O)CC2)ccc1O | -23% | -1% | -0.5% | -3% | 2% | 0% | 184% | -1% | -1.1% | i
Cc1nc2sc3c(c2c2nnc(SCC(=O)NCc4ccco4)n12)CCCC3 | ? | -4% | 9.1% | 2% | ? | -3% | 67% | 25% | -2.2% | i
COc1ccc(C(C#N)Nc2ccccc2OC)cc1 (stereo unspecified) | 0% | 2% | -3.5% | . | -9% | -6% | . | . | 0.0% | .
c1ccc(-c2nnc3n2NC(c2ccc4c(c2)OCO4)S3)cc1 (stereo unspecified) | ? | 0% | -1.5% | -3% | 28% | -1% | 6% | 4% | 0.3% | i
Cc1nc2ccccc2c2oc(C(=O)Nc3ccc4c(c3)OCCO4)cc12 | -4% | -6% | -3.8% | -15% | 19% | -6% | 154% | . | -2.4% | .
CC1Cc2nc(SCC(=O)Nc3ccc4c(c3)OCO4)n(-c3ccc(F)cc3)c(=O)c2S1 (stereo unspecified) | 42%[activator] | 2% | -2.7% | 1% | 17% | -3% | 1% | . | 0.3% | .
Cc1ccc(CNC(=O)c2ccccc2NS(C)(=O)=O)cc1 | -3% | 0% | -0.7% | -5% | 0% | 1% | -4% | -4% | -2.2% | i
COc1cc2nc(N(C)CCCNC(=O)C3CCCO3)nc(N)c2cc1OC (stereo unspecified) | 4% | -1% | 2.0%[3.08 µM] | . | . | 0% | . | -17% | 0.1% | .
COCCn1c(SCc2cnc(-c3ccccc3)s2)nnc1-c1ccncc1 | -2% | -1% | -0.4% | -4% | ? | -1% | -4% | 11% | -0.1% | i
CC(=O)n1c2ccccc2c2c1c1ccccc1n2C | 5% | -1% | -0.3% | -8% | -17% | -4% | 31% | 7% | -1.5% | .
O=C(Nc1nnc(COc2ccc(Cl)cc2)s1)c1cccs1 | 16µM* | 0% | 0.4% | -10% | -1% | 1% | 25% | 0% | -0.9% | i
COc1cccc(-c2cncnc2-n2ccnc2)c1 | -14% | -1% | -1.8% | -6% | 6% | 2% | 14% | -14% | -0.6% | i
Cc1cc(=O)n2[nH]c(-c3ccc(F)cc3)cc2n1 | -4% | 0% | 0.9% | -9% | -5% | -9% | 4% | -5% | -2.2% | i
COc1ccc(C2c3c(-c4ccccc4O)n[nH]c3C(=O)N2CCc2ccc(OC)c(OC)c2)cc1 (stereo unspecified) | ? | -3% | 1.9% | 4% | 26% | -3% | 231% | -76% | -4.3% | i
CCNC(=O)CC1C(=O)N(c2ccc(F)cc2)C(=O)N1Cc1ccccn1 (stereo unspecified) | 10% | 1% | 0.1% | 5% | 7%[2.29 µM] | 1% | 4% | -2% | -1.2% | i
CCc1nnc(NC(=O)C2CCCCC2)s1 | -2% | 1% | -0.7% | -4% | 12% | 2% | 4% | 3% | 0.4% | .
CCCCCCN=CC1=C(O)C(C(=O)OC)C(C)(C)CC1=O (stereo unspecified) | -3% | 2% | -1.4% | -4% | 7% | -2% | 3% | 8% | -1.2% | .
c1ccc(CNc2ncncc2-c2cccnc2)cc1 | ? | -4% | 1.9% | -6% | 24% | 0% | 3% | -8% | 1.2% | i
Cc1ccc(Nc2nnns2)cc1C | ? | -1% | -4.2% | -4% | 3% | 0% | -14% | 2% | 0.4% | i
COc1ccccc1-n1c(N)c(C(N)=O)sc1=S | -28% | -4% | -2.3% | -1% | 15% | 2% | 8% | -7% | 1.8% | i
CCC(=O)Nc1nonc1-c1nc2ccccc2n1N(C(=O)CC)C(=O)CC | 9% | -7% | 1.0% | -4% | 9% | 0% | -18% | 16% | -1.0% | i
c1ccc2c(c1)OCC(c1nnc3sc(-c4cnccn4)nn13)O2 (stereo unspecified) | ? | -17% | -0.4% | -5% | 5% | -3% | 25µM* | 33%[activator] | 1.0% | i
CCOC(=O)c1sc(N)c(C#N)c1CSc1nnc(C2CCCCC2)n1N | -7% | -3% | 0.1% | -6% | ? | -3% | -16% | 38%[activator] | 0.2% | i
O=C(Nc1cccc(-c2nnc(-c3ccccc3)o2)c1)c1ccc(Br)o1 | -11% | 2% | -0.1% | -3% | ? | -5% | 423% | 46%[activator] | -1.9% | i
CCOc1ccccc1CNc1nc2nc3c(c(=O)n2[nH]1)CCC3 | 2% | 0% | -0.4% | -5% | 12% | 1% | -2% | -4% | 1.4% | i
COc1cc(NC(=O)c2c(F)c(F)c(F)c(F)c2F)c(OC)cc1Cl | -5% | 1% | 1.1% | -4% | 6% | -1% | 11% | -4% | 0.3% | i
N#Cc1cccc(-c2cncnc2-n2ccnc2)c1 | ? | 0% | -0.2% | -4% | 8% | -2% | 14% | -16% | 2.3% | i
O=C(O)C[C@H](Nc1ccccc1)C(=O)O | 7%[11.4 µM] | 2%[11.5 µM] | -2.3%[15.4 µM] | -2%[11.4 µM] | 7%[11.4 µM] | 0%[11.5 µM] | -1%[11.4 µM] | . | -0.8%[15.4 µM] | i
COc1ccc(-c2cc(C(F)(F)F)nc(NCc3ccco3)n2)cc1OC | ? | -2% | 0.1% | -2% | 10µM* | -5% | 21% | -9% | -1.3% | i
c1coc(-c2nnc(-c3ccc4c(c3)OCO4)o2)c1 | ? | -15% | -0.1% | -2% | ? | -1% | -11% | 14% | -3.9% | .
Nn1c(SCc2cccc(C(F)(F)F)c2)nnc1-c1ccco1 | 1% | -1% | 0.5% | -6% | 1% | -1% | 4% | 3% | 0.4% | i
Cc1ccc(Cl)cc1N1CCN(Cc2nnnn2Cc2ccco2)CC1 | -4% | -2% | -2.1% | -2% | 7.9µM* | -2% | 13% | -5% | -0.3% | i
O=C1CC(c2ccccc2)c2cc(O)ccc2O1 (stereo unspecified) | -12% | -1% | -0.6% | -8% | -1% | 0% | -9% | -6% | 2.0% | .
